Source: PubChem BioAssay
ClpP mod: qHTS Assay for Activators of ClpP | 1.9% of 340,000 active | Potency, µM (highest dose often 57.5 µM), without a hit: top-dose activity change, negative = active | purified B. subtilis ClpP, FRET peptide cleavage, 20 min | ATP-dependent Clp protease proteolytic subunit (Bacillus subtilis (strain 168)), P80244; active = well fitted falling curve with a large enough effect; inconclusive = small, poorly fitted or top-dose-only effect; inactive = no such curve, though single readings can be large or run the other way; also: potency is read from the fitted curve at half-maximal effect; the source files actives as falling curves though it sought activators and does not explain the sign; nearly all actives have a fitted effect of over 65% in size; many hits overshoot -100%
Target sequence (P80244 whole entry, looked up): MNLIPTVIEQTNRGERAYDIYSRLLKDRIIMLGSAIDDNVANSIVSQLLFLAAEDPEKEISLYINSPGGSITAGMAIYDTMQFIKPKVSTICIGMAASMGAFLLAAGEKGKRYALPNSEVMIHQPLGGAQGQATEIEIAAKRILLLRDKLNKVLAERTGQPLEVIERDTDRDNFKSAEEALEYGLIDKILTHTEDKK
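FRET quenching reversal measured ClpP activation: 10 microg/mL B. subtilis ClpP at pH 8 with the FRET-FV decapeptide, read at 430 nm after 320 nm excitation. The 20-min minus 0-min signal was scaled between DMSO/no-enzyme wells and ADEP (5.8 microM final).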
Sfp PPTase inh: qHTS Assay for Inhibitors of Bacillus subtilis Sfp phosphopantetheinyl transferase (PPTase); 4'-phosphopantetheinyl transferase ffp (Bacillus subtilis), Q9F4F7; Biochemical Sfp PPTase activity, qHTS; Potency, µM, for the others: max response, negative = inhibition, hits mostly inhibitors; 3.5% of 310,000 active; AID 1490, 2009; active = well fitted inhibition curve with a large enough effect; inconclusive = small, poorly fitted or top-dose-only effect, or another doubt; inactive = no such curve, though single readings can be large or run the other way;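 also: the enzyme is Sfp with the accession as filed and its product quenches rhodamine fluorescence; potency is read from the fitted curve at half-maximal effect; 0% = enzyme reaction without inhibitor and -100% = no enzyme wells; top concentration of the series not given in the record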
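With Hepes-Na pH 7.6 buffer containing 10 mM MgCl2, Sfp (15 nM) modified BHQ-2-YbbR (12.5 uM) using rhodamine-CoA (5 uM). Two reads 30 minutes apart at 525/598 nm yielded each well's rate.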
Menin-MLL FL inh: qHTS Assay for Inhibitors Targeting the Menin-MLL Interaction in MLL Related Leukemias: Competition With Fluorescein Labeled MLL-derived Peptide; FP activity change, % at 61.4 µM; 290,000 tested, under 10 active; Fluorescence polarization, fluorescein-MLL peptide displacement from menin; inconclusive = falling polarisation curve, or a change in total fluorescence; inactive = total fluorescence flat and polarisation flat or rising; no compound was filed as active; the % refers to the polarisation; negative = inhibition;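 also: % of control where 0% means no effect; inhibitors lower the polarisation; unlabelled MLL peptide was the positive control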
gsp antag: qHTS for Antagonists of gsp, the Etiologic Mutation Responsible for Fibrous Dysplasia/McCune-Albright Syndrome: qHTS; Potency, µM (top dose mostly 76.9 µM), for inactives: top-dose activity change, negative = inhibition, hits mostly inhibitors; 0.4% of 340,000 active; gsp-mutant cells, cAMP HTRF, 30 min; control for the full effect not named in the record; AID 624288, 2012; active = falling curve of any shape with a large fitted effect; inconclusive = falling curve, mostly with a smaller effect; inactive = flat or rising curve; cell line not stated here;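 also: intracellular cAMP measured with PDE inhibitor Ro 20-1724 present during compound exposure; potency is read from the fitted curve at half-maximal effect; % is scaled to controls: 0 for no effect and ±100 for the full control effect; nearly all actives have a fitted effect of over 65% in size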
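HTRF cAMP read-out (cAMP-d2 plus anti-cAMP antibody-K in lysis buffer, 30 min RT). Before lysis, cells are exposed to compounds with […] for 30 min at 37C in DPBS containing Ca/Mg, BSA and Tween 20.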
D2 PAM: Beta-Arrestin HTS for Positive Allosteric Modulators of the Human D2 Dopamine Receptor: Potentiators | D(2) dopamine receptor (Homo sapiens), P14416 | DiscoveRx D2 beta-arrestin cells, luminescence, 90 min; 100% = 57 uM dopamine signal | potentiation, % (test concentration not listed) | 0.23% of 360,000 active | AID 624464, 2012; active = potentiation of 50% or more; inconclusive = 30% to 50%; inactive = 30% or less;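 also: compound concentration not given in the record; tested on top of an EC20 dose of dopamine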
Target sequence (P14416 whole entry, looked up): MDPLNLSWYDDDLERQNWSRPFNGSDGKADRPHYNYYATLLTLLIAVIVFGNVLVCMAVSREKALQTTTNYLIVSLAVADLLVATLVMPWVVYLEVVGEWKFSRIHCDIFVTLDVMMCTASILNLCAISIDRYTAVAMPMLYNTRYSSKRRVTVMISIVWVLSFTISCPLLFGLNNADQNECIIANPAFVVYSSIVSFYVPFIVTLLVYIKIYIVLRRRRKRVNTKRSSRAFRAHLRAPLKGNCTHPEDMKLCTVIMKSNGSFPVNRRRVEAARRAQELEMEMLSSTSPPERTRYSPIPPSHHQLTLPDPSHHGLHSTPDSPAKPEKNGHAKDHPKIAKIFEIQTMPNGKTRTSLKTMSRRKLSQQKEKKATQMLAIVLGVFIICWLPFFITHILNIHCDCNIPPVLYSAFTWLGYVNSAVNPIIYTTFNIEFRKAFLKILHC
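D2 cells co-treated with compound plus 50 nM dopamine (EC20) for 90 min at 37 deg C to detect potentiation. Beta-arrestin recruitment was read as enzyme-fragment luminescence after 1 h at ambient temperature. Full response was set by 57 uM dopamine.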
gsp agonist: qHTS for Agonist of gsp, the Etiologic Mutation Responsible for Fibrous Dysplasia/McCune-Albright Syndrome: qHTS. gsp mutant cells, cAMP HTRF, 30 min; control for the full effect not named in the record. Potency, µM (top dose mostly 76.9 µM), for the others: at the highest dose activation (cAMP increase), most hits filed as activators. 0.13% of 340,000 active. AID 624287, 2012; active = well fitted activation curve with a large enough effect; inconclusive = small, poorly fitted or top-dose-only effect, or another doubt; inactive = no such curve, though single readings can be large or run the other way; cell line not stated here;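 also: phosphodiesterase inhibitor Ro 20-1724 added with compounds to block cAMP breakdown; potency is read from the fitted curve at half-maximal effect; nearly all actives have a fitted effect of over 60% in size; about a fifth of the inactives were tested at one dose only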
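Cells stably selected in G418 were plated at 2000/well, grown 16-24 hr, then given compounds in DMSO with the PDE inhibitor […] (300 uM solution added) for 30 min at 37C; cAMP was read by HTRF.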
TRPV1 potentiator: HTS Assay for Compounds that Act as Potentiators of the Vanilloid Receptor 1. Transient receptor potential cation channel subfamily V member 1 (Homo sapiens), Q8NER1. TRPV1-expressing cells, Fluo-8 calcium influx, capsaicin EC20 potentiation; host cell line not named in the record; control for the full effect not named in the record. potentiation, % at 8.33 µM. 0.02% of 320,000 active. AID 540277, 2011; active means potentiation above 80%; inconclusive means 30% to 80%; inactive means below 30%; also: 0% is about no effect
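TRPV1-expressing cells were cultured overnight at 35.5C and loaded with Fluo-8 calcium dye for 40 to 90 min at room temperature. After a 10 s baseline, compound was added and calcium influx was read kinetically for 3 min (ex 480/em 520 nm).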
* marks the source's active call; other numbers are inactive results; ? = inconclusive; nt = not tested or not shown; & = joins results of further samples; [ ] = dose if it differs, or a comment.

SMILES | ClpP mod | Sfp PPTase inh | Menin-MLL FL inh | gsp antag | D2 PAM | gsp agonist | TRPV1 potentiator
CCOC(=O)C1=C(C)NC(C)=C(C(=O)OCC)C1 | -1.1% | 1%&21% | ? | -1%&4% | -5&-26 | -2%&12% | 23&-6
CCCCCn1c(=NC(=O)c2ccco2)c(C(=O)OCC)cc2c(=O)n3ccccc3nc21 | 16µM* | -5% | 0.6 | ? | -14&-23 | -3%&-20% | -7
CC(=O)c1cccc(N=Cc2c(O)c3ccccc3oc2=O)c1 | nt | -2% | 0.5 | 11% | -4 | -50%[inhibitor] | 0
COc1cccc(-n2nnnc2SCC(=O)NCCc2ccc(OC)c(OC)c2)c1 | nt | 24% | -4.4 | -3% | -5 | 7%[15.4 µM] | 4
C/C(=C\C(=S)Nc1ccccc1)Nc1cccc2ccccc12 | ? | ? | 6.5 | -11% | -18 | -16% | 1
CCOc1ccc(CCNC(=O)c2cccc3c2C(=O)N(CCOC)C3)cc1OCC | 1.1% | 8% | -5.1 | 0% | -2 | -3%[15.4 µM] | ?
COc1ccc(C(=O)Nc2ccc(Cl)cc2C(=O)NCc2ccco2)cc1 | ? | -12% | 3.7 | 24% | -9 | -2% | -4
CC1CC1C(=O)OCC(=O)Nc1cccc(Br)c1 (stereo not given) | nt | nt | nt | 4% | -10 | -10%[15.4 µM] | -10
OCCC1CN(Cc2nc3c(s2)CCCC3)CCN1CCc1ccccc1 (stereo not given) | -1.2% | -6% | -1.0 | 5% | -5 | -20% | -3
CCOc1ccc(-c2nc(S(=O)(=O)c3ccccc3)c(NCc3cccnc3)o2)cc1 | -1.6% | -7% | 1.3 | -21% | -16 | -47%[inhibitor] | 19
Cc1cccc(C)c1NC(=O)CN(C)C(=O)c1cccc(-n2cccc2)c1 | -1.4% | nt | nt | -9% | -8 | 20% | 27
CC(C)C[C@H]1COCCS(=O)(=O)N1Cc1cccc(F)c1 | 0.4% | nt | nt | 0% | -4 | nt | nt
CC(C)(C)NC(=O)C1CC(=O)OC12CCOC(C)(C)C2 (stereo not given) | 0.3% | -4% | 3.5 | 18% | -6 | -2% | -5
COC(=O)c1ccc(Sc2ccccc2NS(=O)(=O)c2ccc(NC(C)=O)cc2)nc1 | 0.3% | 7% | 4.9 | 1% | -7 | 15% | 4
C(=C\c1nc(-c2cccnc2)no1)/c1ccccc1 | -2.6% | -29% | -1.9 | 0% | -10 | 15%[15.4 µM] | 4
CCOC(=O)C1=C(C)Nc2nc(SCC(=O)OC)nn2C1c1cc(F)cc(F)c1 (stereo not given) | 1.8%&0.0% | 4% | -3.1 | ? | -10&-9 | -14%&9% | 6
Cc1ccc(C(NC(N)=O)c2ccccc2C)cc1 (stereo not given) | -1.5% | -15% | -0.5 | 3% | -5 | 9% | 29
COc1cccc(CC(=O)Nc2ncc(C)s2)c1 | nt | 4% | -0.9 | 11% | 3 | 12%[15.4 µM] | -13
COc1cccc(NC(=O)CN(C)S(=O)(=O)c2ccc3c(c2)n(C)c(=O)c(=O)n3C)c1 | -8.4% | 22% | nt | -5% | -2 | 28% | 2
CCc1ccc(NC(=O)N2CCN(c3ccc(F)cc3)CC2)cc1 | -2.4% | -8% | 1.5 | -1% | -6 | -64%[inhibitor] | -9
CC1CCN(C(=O)CNC(=O)CNS(=O)(=O)c2ccccc2)CC1 | 0.6% | 22% | 0.5 | 7% | 20 | -27% | 4
CC(CN1CCCCC1)c1ccccc1 (stereo not given) | 1.0% | -14% | 4.4 | 11% | -6 | 6%[15.4 µM] | 4
COC(=O)c1ccc(C)c(NC(=S)NCc2ccc(Cl)cc2)c1 | -0.9% | 21% | 0.5 | -3% | -12 | ? | 10
CCCCN(C)C(=O)c1cccc(OC2CCN(CC(C)(C)C)CC2)c1 | 2.6% | 12% | 3.6 | -1% | -2 | -1% | 1
O=C(NC(=O)c1ccccc1)Nc1ccc(Cl)cn1 | -4.6% | 4% | -1.3 | 1% | -15 | 26% | 3
O=C(Nc1ccccc1)N1CCSc2cc(Cl)ccc21 | -0.5% | 12% | 5.5 | 18% | -9 | -19% | nt
Cc1cc(C)n2nc(C(=O)Nc3cccc(S(=O)(=O)N4CCOCC4)c3)nc2n1 | nt | nt | nt | 10% | -66 | 99%[15.4 µM] | 15
Cn1ccnc1C(O)(c1nnc(-c2ccccc2)o1)C(F)(F)F (stereo not given) | -1.3% | ? | -4.4 | -6% | 1 | -75% | -5
CCCc1cc(=O)[nH]c(SCCOc2ccc(Cl)cc2)n1 | 0.2% | 28% | 8.2 | -9% | 0 | -7% | 16
CCCCn1c(N)c(N(Cc2ccccc2OC)C(=O)CCSC)c(=O)[nH]c1=O | -1.1% | 18% | nt | 14% | -8 | -2% | ?
Cc1cccc(-c2cc(N)n(-c3ccccc3)n2)c1 | nt | -3% | -2.4 | 3% | 1 | -10%[15.4 µM] | -7
Cc1occc1C(=O)N(Cc1nc(-c2ccccc2)no1)C(C)C | 2.9% | 25% | 3.3 | 8% | -7 | 23% | -3
CCOc1cc(NC(=O)c2cccs2)c(OCC)cc1NC(=O)c1ccccn1 | nt | 9% | -5.2 | -12% | 1 | -14%[15.4 µM] | -2
N#CCN(CC#N)C(=O)C1c2ccccc2Oc2ccccc21 | nt | 9% | -19 | 10% | 0 | 5% | -6
COc1ccc(CCNC(=O)CN(C)S(=O)(=O)c2ccc(OC)cc2)cc1 | -24% | 15% | -0.1 | 2% | -6 | 3%[15.4 µM] | -4
COc1ccc(N/C(=C(/C(Cl)=C(Cl)Cl)[N+](=O)[O-])n2nnc3ccccc32)cc1 | nt | ? | ? | nt | nt | nt | -3
C#CCOCCOCCOCCNc1nc(N2CCN(C(=O)[C@H](CCCCN)n3cc(C(N)CO)nn3)CC2)nc(N2CCN(C(=O)[C@H](CCC(=O)O)n3cc(C(N)Cc4ccc(O)cc4)nn3)CC2)n1 (stereo not given in full) | nt | -30% | 1.3 | nt | nt | nt | ?
Cc1cc([N+](=O)[O-])ccc1NC(=O)c1csc(C)c1C | 1.8% | 5% | 0.4 | 6% | -16 | -14% | -22
Cc1ccccc1OCCC(=O)OCC(=O)NC1CC1 | -0.8% | nt | nt | 3% | -1 | -1%[15.4 µM] | 3
COc1ccccc1C(=O)NC(C)c1cccc2ccccc12 (stereo not given) | nt | -26% | -7.2 | -18% | -4 | -15%[15.4 µM] | 16
COc1ccc2[nH]c3c(=O)n(/N=C/c4ccc(OC)c(CN5CCCC5)c4)c(C)nc3c2c1 | -14% | -29% | 24 | -20% | -6 | ? | nt
Cc1cc(C)cc(NC(=O)COC(=O)CC2CCCC2)c1 | -1.5% | nt | nt | 6% | -13 | 6% | -5
Cc1ccc(C)c(NC(=S)Nc2cccnc2)c1 | 25µM* | -12% | 9.0 | 1% | -8 | 11%[15.4 µM] | -36
O=C(NCc1cccs1)C1CC1 | 0.5% | 6% | 0.2 | -12% | -2 | -5%[15.4 µM] | 10
CCOCc1[nH]c(=S)[nH]c(=O)c1Cc1ccc(OCC)cc1 | nt | ? | 5.3 | -4% | -13 | -24%[15.4 µM] | -3
CCN(CC)CCn1c(SCC(=O)Nc2ccc3c(c2)CCC3)nc2ccccc2c1=O | -18% | nt | nt | 7% | -16 | ? | 12
Cc1cccc(OC(=O)C2C(c3ccccc3)C(C(=O)O)C2c2ccccc2)c1 (stereo not given) | -4.6% | ? | -1.6 | -7% | -1 | 2% | 13
Cc1ccc(NNC(=O)c2c(C)noc2C)cc1Cl | 2.6% | -10% | 1.3 | 6% | -30 | ? | ?
COc1ccc(NC(=O)CSc2nnc(-c3cccnc3)o2)cc1 | 0.2% | 24% | -7.2 | 9% | 1 | -30% | 9
CC(C)C(=O)NCCc1nc(-c2ccccc2)no1 | -1.6% | nt | nt | 8% | -11 | -4% | nt
(cont.)
SMILES | ClpP mod | Sfp PPTase inh | Menin-MLL FL inh | gsp antag | D2 PAM | gsp agonist | TRPV1 potentiator
Cc1ccc(S(=O)(=O)NCC(=O)OC(C)C(=O)NC(=O)NC2CCCCC2)cc1C (stereo not given) | 0.9% | nt | nt | -24% | -3 | 5% | -2
CCCCCCC1/C(=N\NC(=O)c2ccccc2)CCC1C(=O)OC (stereo not given) | -1.0% | 12% | 4.3 | -3% | -5 | 28% | -7
CCOC(=O)NC(c1ccc(C(C)C)cc1)C(Cl)(Cl)Cl (stereo not given) | 1.8% | -8% | 1.0 | 13% | -13 | -2% | -2
COc1ccc(CCNC(=O)COc2cccc3c2OC(C)(C)C3)cc1OC | 0.8% | nt | nt | 1% | -1 | 2%[15.4 µM] | 2
O=C1CCCCC1Sc1nnc(Nc2ccccc2)s1 (stereo not given) | -2.5% | 11% | -3.0 | -4% | -6 | 0% | -8
C/C(=N\NC(=O)c1c(Br)c(C)nn1C)c1cccc(NC(=O)c2ccccc2F)c1 | -0.2% | -4% | 1.7 | -11% | -1 | 17%[15.4 µM] | -4
CCCCNC(=O)COC(=O)c1cc(Br)ccc1Cl | 1.0% | 4% | -1.5 | -4% | -9 | -53%[inhibitor] | -9
C=C(C)C(=O)N1CC2(CC(c3cccc(NC(=O)/C=C\C)c3)=NO2)C[C@H]1C(N)=O (stereo not given in full) | 0.9% | 18% | -1.5 | 9% | 3 | nt | 28
CCOC(=O)CCP(=O)(O)C(O)c1ccccc1 (stereo not given) | 1.2% | 0% | -1.5 | -6% | -11 | -15% | 2
Cn1c(=O)c(C(=O)CN2CCCCCC2)c(N)n(Cc2ccccc2)c1=O | nt | -3% | -0.4 | -3% | -1 | -8%[15.4 µM] | -20
